LASV entry inh: qHTS for Inhibitors of binding or entry into cells for Lassa Virus; Lassa virus pseudotype entry inhibition, cell reporter; control for the full effect not named in the record; Potency, µM (highest dose often 37.9 µM), without a hit: at the top dose activity change, negative = inhibition, hits mostly inhibitors; actives 1.2% (n = 300,000); AID 540256, 2011; active means well fitted inhibition curve with a large enough effect; inconclusive means small, poorly fitted or top-dose-only effect, or effect the other way; inactive means flat fitted curve, though single readings scatter; tested in HEK293 cells; also: % is scaled to controls: 0 for no effect and ±100 for the full control effect; nearly all actives have a fitted effect of over 50% in size; luciferase read-out
NS1 function inh: qHTS Assay for Inhibitors of Influenza NS1 Protein Function; Potency, µM (series often up to 46.1 µM), inactives show at the highest dose activity, positive = more growth; actives 0.4% (n = 270,000); S. cerevisiae slowed by influenza A NS1, growth recovery by OD600; AID 2326, 2010; also: actives are rising curves; nearly all actives have a fitted effect of over 50% in size
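Compounds were scored for reversing the slow growth caused by influenza A NS1 in S. cerevisiae, measured by optical density at 600 nm. Assay medium contained 2% galactose at pH 6.0; NS1-free yeast of the same strain were the positive control.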
StopGo reporter: High Throughput Screening for Foot and Mouth Disease Virus Antivirals; human cells with a luciferase reporter of 2A StopGo recoding; control for the full effect not named in the record; Potency, µM (highest dose often 57.9 µM), for inactives: at the top dose signal change, negative = less light; actives 1.2% (n = 410,000); AID 1159524, 2015; active = well fitted falling curve with a large enough effect; inconclusive = small, poorly fitted or top-dose-only effect; inactive = no such curve, though single readings can be large or run the other way; tested in HEK293T cells; also: % is scaled to controls: 0 for no effect and ±100 for the full control effect; nearly all actives have a fitted effect of over 45% in size; luciferase light after 4 h
Marburg entry inh: qHTS for inhibitors of binding or entry into cells for Marburg Virus. actives 1.8% (n = 300,000). Marburg virus pseudotyped entry inhibition, cell reporter; control for the full effect not named in the record; about a third of the inactives were read at about 46 µM. Potency, µM (top dose mostly 37.8 µM), inactives show top-dose activity change, negative = inhibition, hits mostly inhibitors; active = well fitted inhibition curve with a large enough effect; inconclusive = small, poorly fitted or top-dose-only effect, or effect the other way; inactive = flat fitted curve, though single readings scatter; tested in HEK293 cells; about a fifth of its hits are not listed in these tables; also: % is scaled to controls: 0 for no effect and ±100 for the full control effect; luciferase read-out
Cruzain noTriton: qHTS Assay for Promiscuous and Specific Inhibitors of Cruzain (without detergent); AID 1476, 2009; purified cruzain, Z-FR-AMC fluorescence, no detergent; Cruzipain (Trypanosoma cruzi), P25779; actives 2.3% (n = 200,000); Potency, µM, without a hit: max response, negative = inhibition, actives largely listed as inhibitors; active = well fitted curve in the direction sought with a large enough effect; inconclusive = small, poorly fitted or top-dose-only effect, or another doubt; inactive = no such curve, though single readings can be large; an effect the other way counts as inactive or inconclusive;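 also: plate controls were enzyme without inhibitor for no effect and buffer without enzyme for full effect; nearly all actives have a fitted effect of over 40% in size; top concentration of the series not given in the record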
Target sequence (P25779 123-467 limits assumed): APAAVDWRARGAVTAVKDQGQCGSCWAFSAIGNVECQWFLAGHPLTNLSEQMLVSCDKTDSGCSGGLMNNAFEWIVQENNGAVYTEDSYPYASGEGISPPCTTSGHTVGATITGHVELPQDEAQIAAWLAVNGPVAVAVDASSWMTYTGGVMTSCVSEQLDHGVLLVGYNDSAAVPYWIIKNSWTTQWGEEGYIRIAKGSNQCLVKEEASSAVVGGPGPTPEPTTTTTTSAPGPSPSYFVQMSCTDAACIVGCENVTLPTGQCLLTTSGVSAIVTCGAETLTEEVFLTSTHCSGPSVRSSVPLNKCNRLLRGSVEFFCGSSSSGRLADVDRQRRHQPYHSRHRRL
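Purified cruzain at 1.5 nM, pre-incubated 15 min with compound at room temperature in 100 mM sodium acetate pH 5.5, 5 mM DTT, 0.00005% Triton X-100. Reaction started with 2 uM Z-FR-AMC; AMC fluorescence increase over 60 s gives rate.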
Cruzain inh Det: qHTS Assay for Promiscuous and Specific Inhibitors of Cruzain (with detergent) | AID 1478, 2009 | Potency, µM, without a hit: max response, negative = inhibition, actives largely listed as inhibitors | purified cruzain, Z-FR-AMC fluorescence, 0.01% Triton | actives 0.43% (n = 200,000) | Cruzipain (Trypanosoma cruzi), P25779; active = well fitted curve in the direction sought with a large enough effect; inconclusive = small, poorly fitted or top-dose-only effect, or another doubt; inactive = no such curve, though single readings can be large; an effect the other way counts as inactive or inconclusive;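 also: plate controls were neutral wells for no effect and buffer without enzyme for full effect; nearly all actives have a fitted effect of over 40% in size; top concentration of the series not given in the record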
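Z-FR-AMC hydrolysis (2 uM substrate) by cruzain (1.5 nM) monitored kinetically at ex 360/em 450 nm after 15 min room-temperature compound exposure; 0.01% Triton X-100, pH 5.5, 5 mM DTT.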
SARS PLP yeast: qHTS of Yeast-based Assay for SARS-CoV PLP. Potency, µM (top dose mostly 32.9 µM), inactives show at the top dose activity, positive = growth rescue. S. cerevisiae expressing SARS-CoV PLpro, growth rescue; control for the full effect not named in the record. AID 485353, 2010. actives 0.19% (n = 330,000); also: 0% is about no effect; nearly all actives have a fitted effect of over 55% in size; growth read by luminescence after 48 h
RE007 growth inh: qHTS Assay for Inhibitors of the HIV-1 protein Vpr. S. pombe RE007 Vpr strain, BacTiter-Glo ATP luminescence, 24 h; control for the full effect not named in the record. Potency, µM (doses to about 92.2 µM), inactives show at the top dose activity change, negative = less growth. actives 0.21% (n = 360,000); active = well fitted falling curve with a large enough effect; inconclusive = small, poorly fitted or top-dose-only effect; inactive = no such curve, though single readings can be large or run the other way;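 also: % is scaled to controls: 0 for no effect and ±100 for the full control effect; nearly all actives have a fitted effect of over 50% in size; the assay follows cell death caused by Vpr and the record does not say whether a fall means rescue or toxicity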
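Fission yeast RE007 carrying one integrated HIV-1 vpr copy, seeded at OD 0.01 in PMG+AL medium with 23 nL pinned compound. Grown 24 h at 30 degrees; viability read by BacTiter-Glo luminescence after 5 min.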
* marks the source's active call; other numbers are inactive results; ? = inconclusive; nt = not tested or not shown; & = joins results of further samples; [ ] = another dose, or the depositor's remark. Unless noted, calls follow the shape of the dose curve; as a rule, active means well fitted rising curve with a large enough effect; inconclusive means small, poorly fitted or top-dose-only effect; inactive means no such curve, though single readings can be large or run the other way. Potency is read from the fitted curve at half-maximal effect.

mol | LASV entry inh | NS1 function inh | StopGo reporter | Marburg entry inh | Cruzain noTriton | Cruzain inh Det | SARS PLP yeast | RE007 growth inh
Cc1ccccc1-c1nc(CN(Cc2c(C)nn(C)c2C)C2CC2)c(C)o1 | ? | -2% | ? | ? | nt | nt | 0% | -5%
CCOC(=O)c1cnc(-n2nc(C)cc2C)nc1Nc1ccc(OC)cc1 | ? | 6% | 13% | ? | 23% | -1.1% | 7% | 10%
CC(=O)OCCn1c(Br)nc2c1c(=O)[nH]c(=O)n2C | 22% | -5% | 12% | 16% | 2% | 2.5% | 6% | -2%
O=C(c1ccc(Cn2cnnn2)cc1)N1CCCC(Nc2ccc(F)cc2)C1 (stereo not given) | 2% | 16% | -20% | -16% | nt | nt | 4% | 25%
Cc1ccc2cc(/C=N/Nc3ccc(C(=O)O)cc3)c(Cl)nc2c1 | nt | -2% | 0% | 2% | nt | nt | -3% | -1%
CCOC(=O)c1cn(C2CC2)c2c(F)c(NCCCN(C)C)c(F)cc2c1=O | 10% | nt | -7% | -2%[46.1 µM] | nt | nt | nt | 11%
Cc1ccc(S(=O)(=O)N2CCN(CC(=O)Nc3ccc([N+](=O)[O-])cc3)CC2)cc1C | 5% | -10% | -26% | 4% | 11% | -5.1% | -22% | -3%
O=C(CSc1n[nH]c(=O)[nH]c1=O)c1cccc([N+](=O)[O-])c1 | nt | 8% | -9% | nt | nt | nt | 1% | -3%
Cc1ccc(S(=O)(=O)N(CC(=O)NCCSC2CCCCC2)c2ccccc2F)cc1 | -29% | 20% | 2% | -9% | 18% | -7.6% | 4% | 1%
O=C(Nc1ccccc1-c1ccccc1)c1cccc(C(F)(F)F)c1 | -18% | -4% | -16% | -31% | 1% | -7.8% | -6% | 7%
CN1CCN(CC(O)COC(c2ccc(Cl)cc2)c2ccc(Cl)cc2)CC1 (stereo not given) | nt | 2% | -19% | nt | nt | nt | 1% | 9%
C=C(C)CNC(=S)N/N=C(\C)c1ccc(-n2ccnc2)cc1 | -20% | -3% | -24% | -22% | -10% | -7.6% | 12% | ?
CCc1ccc(-c2[nH]nc3nc(-c4cc(OC)ccc4OC)cc(C(=O)O)c23)cc1 | ? | nt | -13% | nt | -10% | -3.5% | nt | nt
CCS(=O)(=O)n1nc(-c2ccccc2)nc1SC | 11% | -7% | nt | 22% | -6% | 2.4% | -5% | -4%
COc1ccccc1-c1cc2nc(C)c(CCC(=O)Nc3ccc(Br)c(C)c3)c(C)n2n1 | -12%[46.1 µM] | nt | -14% | ? | 6% | -0.9% | nt | nt
COc1cc(OC)cc(C(=O)N2CCN(Cc3ccccc3C(F)(F)F)CC2)c1 | -12% | -94% | -24% | -9% | ? | -7.6% | -4% | 3%
CC(C)(C)NC(=O)COc1ccccc1C#N | 18%[46.1 µM] | -4% | -4% | 1%[46.1 µM] | nt | nt | 0% | 2%
CN(C)/C=N/c1cc(=O)[nH]c(=O)n1CC1CC1 | 2% | 19% | -9% | 5% | -4%&-7% | 3.9%&-2.1% | 3% | 11%
Cc1cc(C)cc(OCC(=O)N2CCc3ccccc3C2)c1 | nt | -9% | 0% | nt | nt | nt | -8% | 3%
COc1ccc(CCN(C(=O)c2cccc(F)c2)C2CC(=O)N(c3ccc(OC)cc3)C2=O)cc1 (stereo not given) | -23% | 14% | -8% | ? | ? | 1.4% | 6% | -6%
Cc1ccc(-n2nnc3c(=O)n(CC(=O)N4CCC(C)CC4)cnc32)cc1 | -4% | -3% | 9% | 3% | -2% | 3.4% | 1% | 6%
CCOc1ccc(C2/C(=C(/O)c3ccc4c(c3)CC(C)O4)C(=O)C(=O)N2CCCn2ccnc2)cc1 (stereo not given) | nt | 5% | -16% | nt | nt | nt | 1% | 0%
CCCC(C)c1nnc(NC(=O)C(=O)OCC)s1 (stereo not given) | 12%[46.1 µM] | 1% | -6% | ? | nt | nt | 0% | -13%
CC(=O)c1cn(CC(=O)Nc2c(C)cccc2C)c2ccccc12 | -15% | 5% | ? | ? | 6% | -0.6% | -7% | 5%
Cn1c(C2CC(=O)N(Cc3ccccc3)C2)nc2ccccc21 (stereo not given) | nt | -4% | -2% | nt | 5% | 3.7% | -1% | 9%

An excerpt from the list above, as a working copy:
mol | LASV entry inh | NS1 function inh | StopGo reporter | Marburg entry inh | Cruzain noTriton | Cruzain inh Det | SARS PLP yeast | RE007 growth inh
Cc1ccccc1-c1nc(CN(Cc2c(C)nn(C)c2C)C2CC2)c(C)o1 | ? | -2% | ? | ? | nt | nt | 0% | -5%
CCOC(=O)c1cnc(-n2nc(C)cc2C)nc1Nc1ccc(OC)cc1 | ? | 6% | 13% | ? | 23% | -1.1% | 7% | 10%

Remaining list, next part.
mol | LASV entry inh | NS1 function inh | StopGo reporter | Marburg entry inh | Cruzain noTriton | Cruzain inh Det | SARS PLP yeast | RE007 growth inh
C=CCN(CC=C)C(=O)c1ccc2nc(Cc3ccc(OC)c(OC)c3)oc2c1 | ? | 9% | -20% | ? | nt | nt | 8% | 7%
CCCCCSc1nc(N2CCOCC2)c2c(c1C#N)CC(C)(C)OC2 | ? | 7% | -24% | 3%&3% | ? | -9.3% | -1% | 1%
CC1=C(C(=O)Nc2ccccc2C)C(c2cccnc2)n2nc(SCc3ccccc3F)nc2N1 (stereo not given) | ? | nt | ? | 9%[46.1 µM] | -3% | 1.7% | nt | nt
Cn1c(Cc2ccccc2)nnc1SCC(=O)NC1CCCC1 | 14% | -3% | 19% | 11%[46.1 µM] | nt | nt | 0% | 23%
COCCn1c(C)cc(C(=O)CSc2nc3ccccc3c(=O)n2Cc2ccco2)c1C | ? | 28% | -11% | ? | ? | -1.7% | 14% | 13%
CCOP(=O)(OCC)C(C)(C)NC(=O)C(Cl)(Cl)Cl | 3% | 11% | -3% | 1% | -3% | 5.3% | -1% | -10%
CNC(=O)COC(=O)/C=C/c1c(C)nn(-c2ccccc2)c1C | -5% | -5% | 13% | ? | -5% | 0.0% | 1% | nt
CN1CCN(C(=O)c2ccc(COc3ccc(C(C)(C)C)cc3)o2)CC1 | -14% | -1% | -2% | -31% | 3% | 0.8% | -2% | 23%
Cc1ccn(C(=O)c2cc3cc(Cl)ccc3oc2=O)n1 | -23%[14.3 µM] | -7% | -1% | -9% | ? | -1.5% | -8%[6.58 µM] | -5%
CN(c1ccccc1)S(=O)(=O)c1cccc(C(=O)OCC(=O)Nc2ccc3[nH]c(=O)[nH]c3c2)c1 | -16% | nt | -12% | 20% | nt | nt | 13% | 20%
NS(=O)(=O)c1ccc(N2CCN(C(=O)C3COc4ccccc4O3)CC2)nc1 (stereo not given) | 4% | nt | -11% | 19% | nt | nt | -5% | -7%
CCOc1ccc(OCCOc2cccc(C(F)(F)F)c2)cc1 | 7% | -3% | ? | ? | -9% | 1.8% | -1% | -10%
CCC(=O)Oc1ccc(-c2cnc3ccccc3n2)cc1 | ? | -43% | nt | ? | 1% | -7.1% | -6% | 7%
COC(=O)c1ccc(N2NC(=O)/C(=C/c3ccc(OC)c(OC)c3)C2=O)cc1 | nt | 20% | -21% | nt | nt | nt | 2% | 5%
O=C(NC1C=CS(=O)(=O)C1)c1sc2ccccc2c1Cl (stereo not given) | ? | -7% | nt | 21µM* | 6% | -2.2% | 4% | -12%
COc1nsnc1NS(=O)(=O)c1ccc(NC(=S)NC(=O)c2ccncc2)cc1 | nt | 4% | 23% | nt | nt | nt | 0% | -12%
COc1ccc(-c2noc(N3CCC(C(=O)N4CCN(c5ccccc5F)CC4)CC3)n2)cc1 | -11%[46.1 µM] | nt | 11µM* | nt | 9% | 5.0% | nt | nt
COC(=O)N/N=C/c1ccc([N+](=O)[O-])o1 | -6% | -8% | 2% | 3% | -7% | -5.6% | 5% | -2%
CC(CN(C)C1CCN(C)CC1)c1ccccc1 (stereo not given) | nt | 8% | 0% | nt | nt | nt | -2% | -3%
CCOC(=O)c1sc2nc3c(cc2c1N)COC(C)(CC)C3 (stereo not given) | ? | ? | 25% | ? | -1% | -4.6% | -12% | 15%[3.69 µM]
O=C(O)c1ccccc1C(=O)c1ccc(N2CCCC2)c([N+](=O)[O-])c1 | 12% | 6% | 49%[activator] | 13%[46.1 µM] | nt | nt | -1% | 18%
C/C(Cl)=C\COc1cc(C)nc2c(Br)cccc12 | 2%[46.1 µM] | nt | -14% | -24%[46.1 µM] | nt | nt | -1% | -18%
COc1ccccc1NC(=O)CCn1c(=S)oc2ccccc21 | nt | -1% | 0% | nt | nt | nt | -1% | 2%
CCC1(C)Cc2ccccc2-c2[nH]c(=S)[nH]c(=O)c21 (stereo not given) | 6%[46.1 µM] | 20% | -18% | 1%[46.1 µM] | nt | nt | -5% | 22%
O=C(COc1ccc(Cl)cc1)Nc1ccc(NC(=O)c2ccco2)cc1 | nt | -10% | 0% | 13%[46.1 µM] | nt | nt | 0% | -6%
Cc1cc(C)n2nc(C(=O)N(C)c3c(N)n(Cc4ccccc4)c(=O)[nH]c3=O)nc2n1 | 10% | nt | -7% | -17% | nt | nt | -2% | 2%
O=C(CSc1nc2c(cnn2-c2ccc(F)cc2)c(=O)[nH]1)Nc1nccs1 | 3% | -3% | -20% | 0% | ? | 0.9% | -1% | -9%
O=C(/C=C/c1ccc(F)cc1)Nc1cc(S(=O)(=O)N2CCOCC2)ccc1N1CCCC1 | -23% | 13% | -25% | -16% | -1% | -2.0% | -16% | 19%

Bioassay records deposited in PubChem BioAssay by National Center for Advancing Translational Sciences (NCATS).

No enrichment for hits; any-hit rate near 4.6%.
